Assay outcomes deposited in PubChem BioAssay by ICCB-Longwood Screening Facility, Harvard Medical School.
HCMV NEC inh – inhibitors of HCMV UL50-UL53 interaction, biochemical, HTRF | 0.15% of 190,000 active | inhibition, % (test concentration not listed) | HCMV UL50-UL53 nuclear egress complex (human cytomegalovirus) | normalized percent inhibition;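 active means both replicates at 50% or more, plus weaker picks with an unusually low signal ratio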;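 further: stock transfer was 100 nL into about 20 µL; 0% = negative control wells and 100% = wells with untagged competitor protein; inactives centre near -12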
GIV Gai3 FP – inhibitors of GIV peptide binding to Galpha-i3, primary screen, biochemical, fluorescence polarization, FITC-GIV GBA peptide, rat Galphai3; AID 1224905, 2016; 0.42% of 210,000 active; percent of control (FP), % (no concentration beside the values); 90 min; hits give low values; scaled: aluminum fluoride 0%, vehicle 100%;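 active means replicate mean at 85% of control or lower, very high polarization wells dropped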;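 further: wells of about 15 µL received 100 nL stock; the first replicate is given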
Target sequence (P08753 whole entry, looked up): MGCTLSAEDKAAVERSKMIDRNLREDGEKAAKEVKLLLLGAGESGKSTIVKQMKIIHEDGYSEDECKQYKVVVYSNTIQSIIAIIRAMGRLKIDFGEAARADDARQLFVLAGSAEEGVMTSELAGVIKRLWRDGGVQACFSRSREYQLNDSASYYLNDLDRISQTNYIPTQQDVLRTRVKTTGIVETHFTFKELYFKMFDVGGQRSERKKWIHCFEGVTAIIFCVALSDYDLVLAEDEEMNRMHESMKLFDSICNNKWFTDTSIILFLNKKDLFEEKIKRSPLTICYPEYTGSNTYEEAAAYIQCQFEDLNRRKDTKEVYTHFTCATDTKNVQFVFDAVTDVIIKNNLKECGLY
Sa growth 42C – S. aureus growth inhibition at 42 and 30 °C, primary screen, LtaS inhibitor project, RN4220, two temperatures; OD600, 20 h, 42 °C; hits give low values; relative growth, % (concentration not given with the values); 0.53% of 170,000 active; AID 720641, 2013;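 active means growth at 42 °C up to 50% and 20 or more points under that at 30 °C, or under 10% at both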;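 further: 300 nL library stock went into each well; scaled to the means of positive and negative controls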
Sa growth 42C second temp – further read-out of Sa growth 42C, marked with its call; relative growth, %; measured here: growth at 30 °C;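 optical density after 20 h as mean of two plates; 100% = untreated growth and lower means inhibition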
* = called active by the depositor; & = joins results of further samples.

For Cc1cc2nc(COc3cccc(NC(=O)C4CC4)c3)cc(=O)n2o1 the results were HCMV NEC inh -0.1 and GIV Gai3 FP 108.4.
For C/C=C/C(=O)OCc1ccccc1Cl the results were HCMV NEC inh -19.0, Sa growth 42C 80.8 and Sa growth 42C second temp 89.8.
`O=C(CSc1nc(=O)n(Cc2ccco2)c2c1CCC2)NCc1ccc(Cl)cc1` gave GIV Gai3 FP 103.9, Sa growth 42C 86.9 and Sa growth 42C second temp 93.0.
Cc1ccc(C(=O)N(c2ccccn2)C(C)c2ccco2)cc1 (configuration not stated) was read as HCMV NEC inh -37.3, Sa growth 42C 107.2 and Sa growth 42C second temp 86.1.
For O=c1c(-c2ccccc2)c(O)c2cccc3c4ccccc4n1c23 the results were HCMV NEC inh -9.6, GIV Gai3 FP 104.2, Sa growth 42C 47.2 and Sa growth 42C second temp 13.8.
`O=C(COC(=O)C1CCCCC1)Nc1ccc(N2CCCCC2)cc1` gave HCMV NEC inh -36.9, Sa growth 42C 84.3 and Sa growth 42C second temp 85.2.
Cc1oc(-c2ccccc2Cl)nc1CS(=O)CC(=O)NC1CC1 (configuration not stated) was read as GIV Gai3 FP 108.2, Sa growth 42C 122.6 and Sa growth 42C second temp 79.7.
`CC(C)c1ccc(NC(=O)CSc2ncccn2)cc1` gave HCMV NEC inh -7.1, GIV Gai3 FP 107.7, Sa growth 42C 110.6 and Sa growth 42C second temp 85.7.
CSc1cccc(-n2nnc(-c3nsc(NC(=O)c4cccs4)n3)c2C)c1 was read as GIV Gai3 FP 104.9, Sa growth 42C 103.3 and Sa growth 42C second temp 77.8.
For Cc1ccc(CNC(=O)CSc2nc3c(-c4ccccc4)csc3c(=O)n2C)cc1 the results were HCMV NEC inh -8.0 and GIV Gai3 FP 100.3.
Cc1ccccc1NC(=O)COc1ccc2c(c1)OC(C)(C)CC2=O was read as HCMV NEC inh -33.8, GIV Gai3 FP 104.6, Sa growth 42C 111.1 and Sa growth 42C second temp 84.3.
For O=C(CSc1nnc(CCCN2C(=O)c3cccc4cccc(c34)C2=O)n1-c1ccccc1)NCCCn1ccnc1 the results were HCMV NEC inh -92.3 and GIV Gai3 FP 106.1.
For Cc1oc(-c2ccccc2)nc1C(=O)NC12CC3CC(CC(C3)C1)C2 the results were HCMV NEC inh -20.3, Sa growth 42C 84.1 and Sa growth 42C second temp 91.3.
`Cc1ccc(C2=Nc3ccccc3NC(=O)C2)cc1` gave HCMV NEC inh -20.3 and GIV Gai3 FP 101.0.
For CC(OC(=O)c1nn(C)c(=O)c2ccccc12)c1ccccc1 (configuration not stated) the results were HCMV NEC inh 8.9, Sa growth 42C 105.1 and Sa growth 42C second temp 83.7.

Next section, overlapping the part above by 2 compounds.
`Cc1ccc(C2=Nc3ccccc3NC(=O)C2)cc1` gave HCMV NEC inh -20.3 and GIV Gai3 FP 101.0.
For CC(OC(=O)c1nn(C)c(=O)c2ccccc12)c1ccccc1 (configuration not stated) the results were HCMV NEC inh 8.9, Sa growth 42C 105.1 and Sa growth 42C second temp 83.7.
For Cc1cc2nc(COC(=O)c3ccccc3NC(=O)COc3ccccc3F)cc(=O)n2o1 the results were HCMV NEC inh -23.1 and GIV Gai3 FP 96.6.
Screening COc1ccc2cc(C3C4=C(CC(C)(C)CC4=O)OC4=C3C(=O)CC(C)(C)C4)c(=O)[nH]c2c1 returned HCMV NEC inh -15.8 and GIV Gai3 FP 104.5.
Screening COC(=O)c1cccc(-n2c(CCC(=O)O)ccc2-c2ccccc2)c1 returned HCMV NEC inh -10.7, GIV Gai3 FP 102.3&97.0, Sa growth 42C 102.6 and Sa growth 42C second temp 83.0.
`CC(C)CC(=O)Nc1nc2c(s1)CC(C(C)(C)C)CC2` (configuration not stated) gave HCMV NEC inh 20.0, GIV Gai3 FP 100.5, Sa growth 42C 97.7 and Sa growth 42C second temp 61.1.
`CCC(CO)n1c(SCc2ccc(C#N)cc2)nc2cc(OC)c(OC)cc2c1=O` (configuration not stated) gave HCMV NEC inh -8.1, Sa growth 42C 95.9 and Sa growth 42C second temp 89.4.
For CN1C(=O)c2[nH]nc(-c3ccccc3)c2C1c1cccnc1 (configuration not stated) the results were HCMV NEC inh -4.5, GIV Gai3 FP 110.2, Sa growth 42C 101.3 and Sa growth 42C second temp 90.2.
Screening COc1ccc(Br)cc1-c1noc(C)n1 returned HCMV NEC inh -23.7, GIV Gai3 FP 106.6, Sa growth 42C 68.4 and Sa growth 42C second temp 85.3.
Screening COc1ccc(-n2c(=O)c3c(c4cc(OC)ccc4n3C)n(Cc3cc(C)ccc3C)c2=O)cc1 returned GIV Gai3 FP 105.0, Sa growth 42C 107.7 and Sa growth 42C second temp 89.9.
Screening Cc1ccc(NC(=O)Cn2c(=O)n(CCCS(=O)(=O)C3CCCCC3)c(=O)c3ccccc32)cc1F returned HCMV NEC inh -0.8, GIV Gai3 FP 105.2, Sa growth 42C 97.9 and Sa growth 42C second temp 92.9.
For CCOc1ccc(NC(=O)CCS(=O)(=O)c2cccc3nonc23)cc1 the results were HCMV NEC inh -50.2, GIV Gai3 FP 99.8, Sa growth 42C 132.0 and Sa growth 42C second temp 97.7.
Screening CCOc1ccc(Nc2cc(C)nc3c(C)c(-c4ccc(OC)c(OC)c4)nn23)cc1 returned HCMV NEC inh -27.8 and GIV Gai3 FP 105.5.
For O=C(O)CSCC(=O)N1CCN(C(=O)c2ccc(Cl)cc2)CC1 the results were HCMV NEC inh -20.6, GIV Gai3 FP 98.3, Sa growth 42C 86.5 and Sa growth 42C second temp 83.1.
COc1cc(C=C2C(=O)NC(=O)NC2=O)ccc1OC(=O)c1ccc(Cl)cc1 was read as HCMV NEC inh -5.0 and GIV Gai3 FP 106.6.
For CC1CCN(CC(C)OC(=O)C2COc3ccccc3O2)CC1 (configuration not stated) the results were HCMV NEC inh -10.3, GIV Gai3 FP 97.7, Sa growth 42C 106.5 and Sa growth 42C second temp 85.6.
Screening Cc1ccc(-c2c(C(=O)NCc3ccccc3)oc(=O)c3ccccc23)cc1 returned GIV Gai3 FP 100.4, Sa growth 42C 105.3 and Sa growth 42C second temp 101.0.

Structures listed so far that contain an NH in an aromatic ring (two):
Screening COc1ccc2cc(C3C4=C(CC(C)(C)CC4=O)OC4=C3C(=O)CC(C)(C)C4)c(=O)[nH]c2c1 returned HCMV NEC inh -15.8 and GIV Gai3 FP 104.5.
For CN1C(=O)c2[nH]nc(-c3ccccc3)c2C1c1cccnc1 (configuration not stated) the results were HCMV NEC inh -4.5, GIV Gai3 FP 110.2, Sa growth 42C 101.3 and Sa growth 42C second temp 90.2.

(next part)
Cc1ccc(CSc2nc3ccsc3c(=O)n2CCC(C)C)cc1 was read as GIV Gai3 FP 103.0, Sa growth 42C 69.0 and Sa growth 42C second temp 63.9.
COc1ccc(OC)c(CNC(=O)c2nc(N3CCOCC3)c3ccccc3n2)c1 was read as HCMV NEC inh -40.7 and GIV Gai3 FP 102.2.
COc1ccc(-c2cnc3c(-c4ccc(OC)c(OC)c4)cnn3c2N)cc1OC was read as HCMV NEC inh -26.9 and GIV Gai3 FP 102.9.
Cc1onc(-c2ccccc2Cl)c1C(=O)NC(C(=O)O)C(C)C (configuration not stated) was read as HCMV NEC inh -7.7, GIV Gai3 FP 101.3, Sa growth 42C 125.7 and Sa growth 42C second temp 79.5.
`CCc1ccccc1Oc1coc2cc(OC(=O)c3ccccc3F)ccc2c1=O` gave GIV Gai3 FP 100.4, Sa growth 42C 115.0 and Sa growth 42C second temp 87.3.
O=C(COc1ccccc1F)Nc1ccc2nc(SCCOc3ccccc3)sc2c1 was read as HCMV NEC inh -10.7&-14.1, GIV Gai3 FP 98.3&102.5, Sa growth 42C 106.4 and Sa growth 42C second temp 93.2.
Screening CCn1cc(C(=O)N2CCN(c3ccccc3F)CC2)c(=O)c2cc(S(=O)(=O)N(C)C)ccc21 returned HCMV NEC inh 9.9, GIV Gai3 FP 99.3, Sa growth 42C 98.2 and Sa growth 42C second temp 99.6.
Screening COc1ccc2c(c1)-c1nc(N)sc1CC2 returned HCMV NEC inh -1.9, Sa growth 42C 107.0 and Sa growth 42C second temp 66.4.
Screening CCOc1ccc(CNC(=O)c2ccc3oc(=O)n(Cc4ccccc4)c3c2)cc1 returned GIV Gai3 FP 101.6, Sa growth 42C 106.4 and Sa growth 42C second temp 77.5.
Screening Cc1ccc(C)c(Nc2cc(N3CCOCC3)c3nonc3c2[N+](=O)[O-])c1 returned HCMV NEC inh -9.1 and GIV Gai3 FP 102.0.
CC1CCN(C(=O)CN(c2ccc(Cl)c(C(F)(F)F)c2)S(=O)(=O)c2ccccc2)CC1 was read as GIV Gai3 FP 100.7, Sa growth 42C 92.6 and Sa growth 42C second temp 88.4.
Screening CCOC(=O)CC1=C(C(=O)OCC)C(c2ccccc2[N+](=O)[O-])C(C#N)=C(N)O1 (configuration not stated) returned HCMV NEC inh -16.4 and GIV Gai3 FP 101.8.
`COc1c(C)cc(S(=O)(=O)Nc2cccc(-c3ccc(N4CCC(C)CC4)nn3)c2)c(C)c1C` gave HCMV NEC inh -26.7 and GIV Gai3 FP 104.4.
`CCc1ccc(CN2C(=O)c3ccccc3C2C(=O)NCCc2ccccc2)cc1` (configuration not stated) gave GIV Gai3 FP 104.4, Sa growth 42C 90.0 and Sa growth 42C second temp 84.0.
COc1cc(C2CC(C(F)(F)F)n3ncc(C(=O)NC(C)(C)C)c3N2)cc(OC)c1OC (configuration not stated) was read as HCMV NEC inh -16.1, GIV Gai3 FP 106.1, Sa growth 42C 87.0 and Sa growth 42C second temp 70.0.
`O=C1NC(=S)N(Cc2ccco2)C(=O)/C1=C\c1cn(CC(=O)N2CCOCC2)c2ccccc12` gave HCMV NEC inh 5.7, GIV Gai3 FP 96.5, Sa growth 42C 107.9 and Sa growth 42C second temp 91.0.
Screening COc1ccc(-c2c(C)nn3c(NCCC4=CCCCC4)cc(C)nc23)cc1OC returned GIV Gai3 FP 105.6, Sa growth 42C 108.4 and Sa growth 42C second temp 83.4.
Screening CCCCOc1ccc(CC(=O)O)cc1 returned HCMV NEC inh -8.1, GIV Gai3 FP 110.7, Sa growth 42C 95.5 and Sa growth 42C second temp 85.2.
`Fc1ccccc1OCCSc1nnc2c(n1)[nH]c1ccccc12` gave HCMV NEC inh -9.6, Sa growth 42C 105.3 and Sa growth 42C second temp 102.6.
CC(=O)NCc1cc2c(cc1Br)OCO2 was read as HCMV NEC inh -25.6, GIV Gai3 FP 92.0, Sa growth 42C 94.9 and Sa growth 42C second temp 97.2.
`COc1ccccc1Cn1cccc1C1=NC(CC(C)C)CO1` (configuration not stated) gave HCMV NEC inh -0.9, GIV Gai3 FP 98.2, Sa growth 42C 75.5 and Sa growth 42C second temp 77.2.
`O=C(Nc1ccccc1)c1ncoc1-c1ccc(Cl)cc1` gave HCMV NEC inh -3.5, GIV Gai3 FP 100.3, Sa growth 42C 110.8 and Sa growth 42C second temp 53.1.
CCS(=O)(=O)c1nnnn1-c1ccccc1 was read as HCMV NEC inh 6.6, GIV Gai3 FP 106.3, Sa growth 42C 0.1* and Sa growth 42C second temp 0.0*.
`COC(=O)C1=C(C)N(C(C)C)C(=O)C1(NC(=O)c1ccccc1OC)C(F)(F)F` (configuration not stated) gave HCMV NEC inh 2.3, GIV Gai3 FP 104.2, Sa growth 42C 99.4 and Sa growth 42C second temp 83.2.
Screening O=C(C1CCCCC1)N1N=C2/C(=C/c3cccs3)CCCC2C1c1cccs1 (configuration not stated) returned HCMV NEC inh -33.6, Sa growth 42C 99.5 and Sa growth 42C second temp 98.2.
`CC1(C)C(=O)N(CC(=O)NCc2ccc(Cl)cc2)c2ccc(S(=O)(=O)N3CCCC3)cc21` gave HCMV NEC inh -39.5 and GIV Gai3 FP 103.9.
Cc1cc(C)cc(CC(C)CC(=O)Nc2ccccc2I)c1 (configuration not stated) was read as GIV Gai3 FP 98.4, Sa growth 42C 101.4 and Sa growth 42C second temp 87.9.
`COC(=O)c1ccc(CNC(=O)c2oc3ccc(OC)cc3c2C)cc1` gave HCMV NEC inh -16.5, Sa growth 42C 104.3 and Sa growth 42C second temp 75.2.
Screening CCCCSc1nc2c(sc3ncccc32)c(=O)n1CC1CCCO1 (configuration not stated) returned HCMV NEC inh -31.6 and GIV Gai3 FP 102.5.
`CN(C)CCCn1c(N)c(-c2nc3ccccc3[nH]2)c2nc(C#N)c(C#N)nc21` gave HCMV NEC inh -13.1, Sa growth 42C 85.0 and Sa growth 42C second temp 81.2.
`CCC(C(=O)Nc1ccc(C)c(Cl)c1)n1c(=O)c(-c2ccccc2NC(C)=O)nc2ccccc21` (configuration not stated) gave HCMV NEC inh -3.3, GIV Gai3 FP 106.1, Sa growth 42C 107.0 and Sa growth 42C second temp 80.7.
Screening O=C(OCCN1CCOCC1)C1c2ccccc2Oc2ccccc21 returned HCMV NEC inh 16.1, GIV Gai3 FP 108.0, Sa growth 42C 104.1 and Sa growth 42C second temp 101.4.
For CC12CC(c3ccccc3O1)N(C(=O)c1cccc(F)c1)C(=S)N2c1ccccc1 (configuration not stated) the results were GIV Gai3 FP 97.7, Sa growth 42C 90.4 and Sa growth 42C second temp 84.3.
O=C(NC1CCc2ccccc21)c1n[nH]c(=O)c2ccccc12 (configuration not stated) was read as HCMV NEC inh -18.5, GIV Gai3 FP 98.2, Sa growth 42C 88.4 and Sa growth 42C second temp 82.6.
